# rRNA inh HTS – inhibitors of bacterial rRNA selective over humanized ribosomes. E. coli WT GFP vs humanized-ribosome RFP mutants, fluorescence, 24 h; stronger effect = lower value; DMSO median 0, no signal -100. GFP signal change (wild-type ribosome), % (concentration not given with the values). hit rate 1.6% among 350,000. AID 720706;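 active = significant combined selectivity score with lowered wild-type GFP, culture density cut under 30%, mutant RFP and density less affected; inactive = any of these conditions unmet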; note: one replicate is shown; some compounds called inactive have numbers as strong as hits
# rRNA inh HTS OD600 – second read-out of rRNA inh HTS, no call of its own (marks repeat the call); OD600 change, %; measured here: OD600 growth;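 optical density of the mix in the first replicate; 0 = DMSO median and -100 = no signal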
# rRNA inh HTS RFP – further read-out of rRNA inh HTS, marked with its call; RFP signal change, %; measured here: RFP humanized mutant strains;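 first replicate; 0 = DMSO median and -100 = no signal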
# Starred values were filed as active, the others as inactive; & = joins results of further samples.
[1] CC(=O)NC(c1ccccc1)c1nc(-c2ccc(F)c(Cl)c2)cs1 (stereo unspecified)
[2] COc1ccc2c3c([nH]c2c1)[C@@H](CO)N(C(=O)Nc1ccc(F)cc1)CC31CCN(Cc2cc(F)ccc2F)CC1
[3] C[C@@H]1CN([C@H](C)CO)C(=O)c2cc(NS(=O)(=O)c3cccs3)ccc2O[C@@H](C)CCCCO[C@H]1CN(C)Cc1ccc(C(=O)O)cc1
[4] O=C(C[C@@H]1CC[C@@H]2[C@H](COC[C@H](O)CN2C(=O)Nc2ccc(C(F)(F)F)cc2)O1)NCC1CCCCC1
[5] C/C=C/c1ccc([C@H]2[C@@H](CO)N(C(=O)C3CC3)[C@H]2CN(C)C(=O)CC2CC2)cc1
[6] O=C(C1CCCC1)N1C[C@@H]2N[C@H](C1)C2c1ccc(-c2ccccc2F)cc1 (stereo partly specified)
assay / compound,1,2,3,4,5,6
rRNA inh HTS,-28,-20,5,-54,-4,-32&-55
rRNA inh HTS OD600,-25,-32,1,-76,-2,-57&-79
rRNA inh HTS RFP,2.1,16,0.0,-16,-0.7,7.8&-11

[7] C[C@@H]1CN([C@@H](C)CO)C(=O)c2cc(NC(=O)CCCN(C)C)ccc2O[C@H]1CN(C)C(=O)NC1CCCCC1
[8] C[C@H](CO)N1C[C@H](C)[C@H](CN(C)C(=O)CN(C)C)Oc2cc(C#Cc3cccnc3)ccc2S1(=O)=O
[9] Clc1ccc(CSc2nnc(-c3ccccn3)n2Cc2ccco2)cc1Cl
[10] C[C@@H]1CCCCO[C@H](CN(C)C(=O)Cc2ccccc2)[C@@H](C)CN([C@@H](C)CO)C(=O)c2cc(NC(=O)c3ccncc3)ccc2O1
[11] COc1ccc(S(=O)(=O)N(C)C[C@H]2Oc3ccc(NC(=O)Nc4ccccc4)cc3CC(=O)N([C@H](C)CO)C[C@H]2C)cc1
[12] Cc1ccc(-c2cnc3c(c2)C(=O)N([C@H](C)CO)C[C@H](C)[C@@H](CN(C)Cc2ccccc2F)O3)cc1
assay / compound,7,8,9,10,11,12
rRNA inh HTS,-1,4,-49,-6,-5,-1&-17
rRNA inh HTS OD600,2,2,-79,-1,-6,-24&-60
rRNA inh HTS RFP,0.8,1.6,-15,-0.1,5.6,2.3&27

[13] Oc1c(N=Nc2nn[nH]n2)ccc2ccccc12
[14] CCCN(C)C[C@@H]1Oc2ncc(-c3cccnc3)cc2C(=O)N([C@@H](C)CO)C[C@@H]1C
[15] CCCC(=O)N1CC2(CN(C(=O)C3CCC3)C2)c2c(n(C)c3cc(OC)ccc23)[C@H]1CO
[16] CCC(=O)Nc1ccc2c(c1)C(=O)N(C)C[C@@H](OC)[C@@H](C)CN(Cc1nccs1)[C@@H](C)CO2
[17] C[C@@H]1CN([C@@H](C)CO)C(=O)Cc2cc(NS(C)(=O)=O)ccc2O[C@@H]1CN(C)S(=O)(=O)c1ccccc1
[18] COc1cccc(C#Cc2ccc([C@@H]3[C@H](CO)N4C(=O)CN(C(=O)c5ccccc5)C[C@@H]34)cc2)c1
assay / compound,13,14,15,16,17,18
rRNA inh HTS,7,8,-2,-1,1,-8
rRNA inh HTS OD600,-10,2,6,-1,2,-60
rRNA inh HTS RFP,8.2,-2.4,-1.1,-4.1,0.3,21

[19] COc1ccc2c3c([nH]c2c1)[C@H](CO)N(C(=O)c1ccncc1)CC31CCN(C(=O)NC(C)C)CC1
[20] COc1ccc(NC(=O)c2cc(-c3ccc(F)cc3OC)n[nH]2)cc1OC
[21] CO[C@@H](CN(C)Cc1ccc2c(c1)OCO2)[C@@H](C)CN(C(=O)c1ccccc1)[C@@H](C)CO
[22] C[C@H](CO)N1C[C@H](C)[C@H](CN(C)C(=O)Nc2cccc3ccccc23)Oc2ccc(NC(=O)CCN3CCOCC3)cc2C1=O
[23] Cc1ccc(S(=O)(=O)Nc2ccc3c(c2)CC(=O)N([C@H](C)CO)C[C@H](C)[C@H](CN(C)C(=O)Nc2c(C)noc2C)O3)cc1
[24] Cc1ccc(S(=O)(=O)N(C)C[C@H]2Oc3cc(-c4cccc(F)c4)ccc3S(=O)(=O)N([C@H](C)CO)C[C@@H]2C)cc1
assay / compound,19,20,21,22,23,24
rRNA inh HTS,2,-14,4,-2,2,-4
rRNA inh HTS OD600,4,-13,12,3,-1,-1
rRNA inh HTS RFP,-0.6,-6.0,0.5,4.9,-0.6,-1.3

[25] CN(C)c1ccc(-c2ccnc3c2CC(C)(C(=O)NCCC(F)(F)F)O3)cc1 (stereo unspecified)
[26] COc1ccc(S(=O)(=O)N2C[C@H](O)COC[C@@H]3O[C@@H](CC(=O)NCCN4CCCCC4)CC[C@H]32)cc1
[27] C[C@H]1CN([C@@H](C)CO)C(=O)c2cccc(NC(=O)CCCCCC(=O)Nc3ccccc3N)c2O[C@@H]1CN(C)S(=O)(=O)c1cn(C)cn1
[28] C[C@@H]1CN([C@@H](C)CO)C(=O)Cc2cc(N(C)C)ccc2O[C@@H]1CN(C)C(=O)NC1CCCCC1
[29] C[C@@H]1CN([C@H](C)CO)C(=O)c2cccc(NC(=O)c3cnccn3)c2O[C@H]1CN(C)C(=O)NC1CCCCC1
[30] O=C(C[C@@H]1C=C[C@H](NS(=O)(=O)c2ccccc2)[C@H](CO)O1)N1CCc2ccccc2C1
assay / compound,25,26,27,28,29,30
rRNA inh HTS,-40,2,1,1,-1,-2
rRNA inh HTS OD600,-67,0,1,3,-2,9
rRNA inh HTS RFP,-18,2.8,-1.0,1.0,-0.7,-1.3

[31] CC1=C(C(=O)N(C(C)C)C(C)C)CC(CC(=O)NC2CCCCC2)C(=O)N1CCCN1CCCC1=O (stereo unspecified)
[32] C[C@@H]1CCCCO[C@H](CN(C)Cc2ccc(C(F)(F)F)cc2)[C@@H](C)CN([C@@H](C)CO)C(=O)c2cc(NC(=O)CCCN(C)C)ccc2O1
[33] COCC(=O)Nc1ccc2c(c1)OC[C@H](C)N(Cc1cccc(F)c1)C[C@H](C)[C@@H](OC)CN(C)C2=O
[34] COc1ccc(CN2C(=O)C(CC(=O)NC(c3ccccc3)c3ccccc3)CC(C(=O)N(C)C)=C2C)cc1 (stereo unspecified)
[35] CO[C@H]1CN(C)C(=O)c2ccc(NC(=O)NC(C)C)cc2OC[C@@H](C)N(CCC(F)(F)F)C[C@H]1C
[36] C[C@@H]1CCCCO[C@@H](CN(C)Cc2ccc(C(=O)Nc3ccccc3N)cc2)[C@@H](C)CN([C@H](C)CO)C(=O)c2cc(NS(=O)(=O)c3cn(C)cn3)ccc2O1
assay / compound,31,32,33,34,35,36
rRNA inh HTS,3,1,-4,-4,0,-1
rRNA inh HTS OD600,17,2,-1,-13,3,4
rRNA inh HTS RFP,-3.5,2.0,-0.2,5.0,0.7,-0.6

[37] C[C@H]1CN([C@@H](C)CO)S(=O)(=O)c2ccc(C#Cc3ccccc3F)cc2O[C@H]1CN(C)C(=O)Cc1ccncc1
[38] CO[C@H]1CN(C)C(=O)c2cc(NC(C)=O)ccc2OC[C@@H](C)N(C(=O)c2ccccc2F)C[C@H]1C
[39] COc1ccc2c3c([nH]c2c1)[C@@H](CO)N(C(C)=O)CC31CN(S(=O)(=O)c2cccs2)C1
[40] C[C@H]1CN([C@@H](C)CO)S(=O)(=O)c2ccc(C#CC3CCCCC3)cc2O[C@H]1CN(C)C(=O)Cc1ccncc1
[41] COc1ccc(NC(=O)N(C)C[C@H]2OCc3ccccc3-c3ccccc3C(=O)N([C@@H](C)CO)C[C@@H]2C)c(OC)c1
[42] COCCCn1c(SCC(=O)N2CCCC2=O)nc2ccccc2c1=O
assay / compound,37,38,39,40,41,42
rRNA inh HTS,3,-1,-11,-1,-1,-4
rRNA inh HTS OD600,1,2,-5,-22,1,-15
rRNA inh HTS RFP,7.2,-2.0,-2.3,31,-0.9,-5.3

[43] O=C(c1cccnc1)N1C[C@H]2[C@@H](c3ccccc31)[C@@H](CO)N2C(=O)C1CCCCC1
[44] COCCNC(=O)C[C@@H]1CC[C@@H]2[C@H](COc3ccc(NC(=O)Cc4ccccc4)cc3C(=O)N2C)O1
[45] CSc1ccc(Cn2c(C)c(C(=O)NCc3ccc4c(c3)OCO4)sc2=O)cc1
[46] O=C(Nc1cc(S(=O)(=O)N2CCOCC2)ccc1OCC(F)(F)F)C1CCCC1
[47] CCC(=O)N1CC[C@@H]2[C@H]1c1cc(C#Cc3cccnc3)ccc1N[C@@H]2CO
[48] O=C(C[C@@H]1CC[C@H]2[C@@H](COC[C@H](O)CN2S(=O)(=O)c2cccc(Cl)c2)O1)Nc1ccc(-c2ccccc2)cc1
assay / compound,43,44,45,46,47,48
rRNA inh HTS,2,-1,-3,11,-6,3
rRNA inh HTS OD600,1,9,-7,11,13,1
rRNA inh HTS RFP,-0.8,-0.3,-6.7,-0.2,-2.3,7.0

[49] COc1cc(CN2CC3(CCN(C(=O)NC(C)C)CC3)c3c(n(C)c4cc(OC)ccc34)[C@H]2CO)cc(OC)c1
[50] COc1ccccc1C(=O)Nc1ccc2c(c1)OC[C@@H](C)NC[C@H](C)[C@H](OC)CN(C)C2=O
[51] CCCC#Cc1ccc([C@@H]2[C@@H](CO)N3CCCCN(CC4CCOCC4)C[C@H]23)cc1
[52] Cc1ccc(S(=O)(=O)N(C)C[C@@H]2Oc3ccc(NS(=O)(=O)c4cccs4)cc3C(=O)N([C@@H](C)CO)C[C@H]2C)cc1
[53] C[C@H]1CN([C@@H](C)CO)C(=O)c2cc(C3=CCCC3)cnc2O[C@H]1CN(C)C(=O)c1ccccc1
[54] C[C@H]1CN([C@@H](C)CO)S(=O)(=O)c2ccc(C#Cc3ccccc3)cc2O[C@@H]1CN(C)C(=O)CN(C)C
assay / compound,49,50,51,52,53,54
rRNA inh HTS,4,-1,-2,-6,5,-1
rRNA inh HTS OD600,0,4,-7,-11,12,6
rRNA inh HTS RFP,-0.2,1.3,-1.0,1.5,-3.3,11

# Molecules listed so far containing an aryl thioether with sulfur outside any ring (3):
[9] Clc1ccc(CSc2nnc(-c3ccccn3)n2Cc2ccco2)cc1Cl
[42] COCCCn1c(SCC(=O)N2CCCC2=O)nc2ccccc2c1=O
[45] CSc1ccc(Cn2c(C)c(C(=O)NCc3ccc4c(c3)OCO4)sc2=O)cc1
assay / compound,9,42,45
rRNA inh HTS,-49,-4,-3
rRNA inh HTS OD600,-79,-15,-7
rRNA inh HTS RFP,-15,-5.3,-6.7

# Continuation:
[55] CNC[C@@H]1Oc2ccc(NC(=O)Cc3ccccc3)cc2CC(=O)N([C@H](C)CO)C[C@@H]1C
[56] CCOC(=O)N(C)[C@H]1C[C@H]2c3[nH]c4ccccc4c3CCN2C[C@H]1[C@H](C)O
[57] O=C(Nc1cc(F)ccc1F)N1CCCCN2[C@H](CO)[C@H](c3ccc(C4=CCCCC4)cc3)[C@H]2C1
[58] C[C@H]1CN([C@@H](C)CO)C(=O)Cc2cc(NC(=O)NC3CCCCC3)ccc2O[C@@H]1CN(C)S(C)(=O)=O
[59] C[C@@H]1CN([C@@H](C)CO)C(=O)c2ccccc2-c2ccccc2CO[C@@H]1CN(C)Cc1ccc(Oc2ccccc2)cc1
[60] CNC[C@H]1Oc2ccc(NS(=O)(=O)c3ccccc3)cc2C(=O)N([C@@H](C)CO)C[C@H]1C
assay / compound,55,56,57,58,59,60
rRNA inh HTS,-2,13,-54,1,0,3
rRNA inh HTS OD600,7,9,-81,-4,-4,9
rRNA inh HTS RFP,0.1,9.0,-15,1.1,-0.9,0.2

[61] CC(C)(C)N1C(=O)c2ccccc2NC(=O)C1C(=O)Nc1ccc(N2CCOCC2)cc1 (stereo unspecified)
[62] O=S1(=O)CCN(C2CCCC2)CC1
[63] COc1ccccc1-c1ccc2c(c1)[C@@H]1[C@@H](CCN1S(=O)(=O)c1ccccc1F)[C@H](CO)N2
[64] CCNC(=O)C1(C)CCCN(C(=O)/C=C/c2ccccc2)C1 (stereo unspecified)
[65] Cc1ccc(S(=O)(=O)N2C[C@@H](O)COC[C@H]3O[C@H](CC(=O)NCc4ccc(Cl)c(Cl)c4)CC[C@@H]32)cc1
[66] CCOC(=O)[C@]12CCC=C1N(Cc1ccco1)C(=O)[C@H](CC(=O)NCCCCc1ccccc1)C2
assay / compound,61,62,63,64,65,66
rRNA inh HTS,23,22,0,16,-58,14
rRNA inh HTS OD600,15,13,-23,23,-77,12
rRNA inh HTS RFP,-0.5,-0.4,5.7,1.2,-14,9.0

[67] CC(=O)C1=C(C)N(Cc2ccc(Br)cc2)C(=S)NC1c1cccc(F)c1 (stereo unspecified)
[68] O=C(c1cccc(F)c1)N1C[C@H]2[C@@H](c3ccccc31)[C@@H](CO)N2C(=O)C1CCCCC1
[69] C[C@H](CO)N1C[C@H](C)[C@@H](CN(C)C(=O)NC2CCCCC2)Oc2ncc(-c3ccccc3F)cc2C1=O
[70] CCCC#Cc1ccc2c(c1)O[C@@H](CN(C)C(=O)CC)[C@@H](C)CN([C@H](C)CO)S2(=O)=O
[71] O=C(C1CC1)N1CC(=O)N2[C@H](CO)[C@H](c3ccc(-c4cccnc4)cc3)[C@@H]2C1
[72] CCC(=O)N(C)C[C@@H]1Oc2cc(C#Cc3ccccc3)ccc2S(=O)(=O)N([C@@H](C)CO)C[C@@H]1C
[73] O=C(NC1CCC1)[C@H]1[C@H](CO)[C@H]2Cn3c(ccc(/C=C/c4ccccc4)c3=O)[C@H]2N1Cc1cncnc1
assay / compound,67,68,69,70,71,72,73
rRNA inh HTS,-17,-2,1,-1,5,-9,-3
rRNA inh HTS OD600,-24,-3,2,-9,23,-46,-2
rRNA inh HTS RFP,-3.5,-2.2,-2.3,0.6,-0.2,13,2.3

# Source: PubChem BioAssay

# An excerpt (hit frequency here may not be typical).
